Source: PubChem BioAssay
TRPV1 potentiator: potentiators of human vanilloid receptor 1 (TRPV1) | potentiation, % at 8.33 µM | 320,000 compounds, 0.02% hits | Q8NER1 | TRPV1-expressing cells, Fluo-8 calcium influx, capsaicin EC20 potentiation; host cell line not named in the record; control for the full effect not named in the record | AID 540277; active means potentiation above 80%; inconclusive means 30% to 80%; inactive means below 30%; further: 0% is about no effect
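Cells expressing TRPV1 were dye-loaded with Fluo-8 and read kinetically: 10 s baseline, 3 min after compound (agonist portion), then 2 min after EC20 capsaicin (allosteric enhancer portion). Calcium-bound dye fluorescence at 480/520 nm.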
D2 PAM: human D2 receptor positive allosteric modulation. 360,000 compounds, 0.23% hits. potentiation, % (concentration not given with the values). P14416. DiscoveRx D2 beta-arrestin cells, luminescence, 90 min; 100% = 57 uM dopamine signal; active = potentiation of 50% or more; inconclusive = 30% to 50%; inactive = 30% or less;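 further: tested on top of an EC20 dose of dopamine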
Target sequence (P14416 whole entry, looked up): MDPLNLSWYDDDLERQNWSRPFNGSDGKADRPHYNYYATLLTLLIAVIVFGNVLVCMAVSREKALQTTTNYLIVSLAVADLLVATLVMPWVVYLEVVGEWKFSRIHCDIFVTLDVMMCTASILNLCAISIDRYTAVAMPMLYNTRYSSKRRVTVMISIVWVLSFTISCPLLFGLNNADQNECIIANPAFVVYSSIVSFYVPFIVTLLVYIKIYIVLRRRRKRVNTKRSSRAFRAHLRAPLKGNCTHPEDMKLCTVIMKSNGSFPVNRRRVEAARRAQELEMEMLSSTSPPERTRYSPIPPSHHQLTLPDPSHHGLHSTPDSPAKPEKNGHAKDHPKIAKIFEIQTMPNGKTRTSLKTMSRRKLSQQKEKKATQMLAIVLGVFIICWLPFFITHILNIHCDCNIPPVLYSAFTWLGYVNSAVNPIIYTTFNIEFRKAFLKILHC
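PathHunter D2 cells, attached overnight at 37 deg C, received compound in DMSO plus dopamine at EC20 (50 nM final) for 90 min at 37 deg C. Beta-arrestin recruitment was read as luminescence after 1 h with detection reagent at ambient temperature.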
Sfp PPTase inh: inhibitors of Bacillus subtilis Sfp phosphopantetheinyl transferase; Q9F4F7; Potency, µM, for inactives: max response, negative = inhibition, most hits filed as inhibitors; 310,000 compounds, 3.5% hits; Biochemical Sfp PPTase activity, qHTS; active means well fitted inhibition curve with a large enough effect; inconclusive means small, poorly fitted or top-dose-only effect, or another doubt; inactive means no such curve, though single readings can be large or run the other way;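 further: the enzyme is Sfp with the accession as filed and its product quenches rhodamine fluorescence; potency means the concentration at half of the fitted maximal effect; 0% = enzyme reaction without inhibitor and -100% = no enzyme wells; top concentration of the series not given in the record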
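Fluorescence-quenching assay with 15 nM Sfp, 5 uM rhodamine-CoA and 12.5 uM BHQ-2-labelled ybbR peptide in pH 7.6 Hepes/MgCl2 buffer. Enzyme was pre-incubated with compound for 15 min at room temperature. Rate was taken from the 30-min fluorescence change (525/598 nm).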
Menin MLL FP FL: displaces fluorescein MLL peptide from human menin; Fluorescence polarization, fluorescein-MLL peptide displacement from menin; FP activity change, % at 61.4 µM; 290,000 tested, under 10 active; AID 1766; inconclusive = falling polarisation curve, or a change in total fluorescence; inactive = total fluorescence flat and polarisation flat or rising; no compound was filed as active; the % refers to the polarisation; negative = inhibition;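 further: % of control where 0% means no effect; inhibitors lower the polarisation; unlabelled MLL peptide was the positive control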
gsp antagonist: antagonists of gsp mutant (McCune-Albright syndrome); gsp-mutant cells, cAMP HTRF, 30 min; control for the full effect not named in the record; Potency, µM (highest dose often 76.9 µM), for the others: top-dose activity change, negative = inhibition, hits mostly inhibitors; 340,000 compounds, 0.4% hits; active = falling curve of any shape with a large fitted effect; inconclusive = falling curve, mostly with a smaller effect; inactive = flat or rising curve; cell line not stated here;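 further: intracellular cAMP measured with PDE inhibitor Ro 20-1724 present during compound exposure; potency means the concentration at half of the fitted maximal effect; on the % scale 0 is the no-effect control and ±100 the full control effect; nearly all actives have a fitted effect of over 65% in size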
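Cells in G418 medium, seeded 16-24 h, 37C; buffer exchange to DPBS + 1 mM CaCl2, 0.5 mM MgCl2, 0.05% BSA; cpds in DMSO + […] (300 uM stock), 30 min 37C; HTRF cAMP detection.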
ClpP mod: qHTS Assay for Activators of ClpP; ATP-dependent Clp protease proteolytic subunit (Bacillus subtilis (strain 168)), P80244; purified B. subtilis ClpP, FRET peptide cleavage, 20 min; AID 651965, 2013; 340,000 compounds, 1.9% hits; Potency, µM (top dose mostly 57.5 µM), for inactives: at the top dose activity change, negative = active; active = well fitted falling curve with a large enough effect; inconclusive = small, poorly fitted or top-dose-only effect; inactive = no such curve, though single readings can be large or run the other way; further: potency means the concentration at half of the fitted maximal effect; the source files actives as falling curves though it sought activators and does not explain the sign; nearly all actives have a fitted effect of over 65% in size; many hits overshoot -100%
Target sequence (P80244 whole entry, looked up): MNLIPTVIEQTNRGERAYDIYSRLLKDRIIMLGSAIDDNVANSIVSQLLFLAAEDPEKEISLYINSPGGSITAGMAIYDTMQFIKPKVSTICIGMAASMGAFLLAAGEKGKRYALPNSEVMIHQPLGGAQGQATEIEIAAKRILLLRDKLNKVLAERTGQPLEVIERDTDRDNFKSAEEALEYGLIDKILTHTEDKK
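Buffer: 100 mM Tris/HCl pH8, 100 mM KCl, 0.05% low protease BSA, 2.5% glycerol, 0.01% Tween-20. ClpP 10 microg/mL final; 20 min RT; delta FRET normalized to ADEP and DMSO controls.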
gsp agonist: activates gsp, the McCune-Albright syndrome mutation. Potency, µM (titrated, usually from 76.9 µM), for inactives: at the highest dose activation (cAMP increase), actives largely listed as activators. 340,000 compounds, 0.13% hits. gsp mutant cells, cAMP HTRF, 30 min; control for the full effect not named in the record. AID 624287; active = well fitted activation curve with a large enough effect; inconclusive = small, poorly fitted or top-dose-only effect, or another doubt; inactive = no such curve, though single readings can be large or run the other way; cell line not stated here;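 further: phosphodiesterase inhibitor Ro 20-1724 added with compounds to block cAMP breakdown; potency means the concentration at half of the fitted maximal effect; nearly all actives have a fitted effect of over 60% in size; about a fifth of the inactives were tested at one dose only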
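Cells in DMEM/10% FBS with G418 were pretreated with compounds in DMSO plus […] (300 uM stock) for 30 min at 37C. cAMP was measured by HTRF (cAMP-d2 plus anti-cAMP antibody-K) after 30 min at room temperature.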
* hit, by the source's call; ? = inconclusive; / = not tested or not shown; & = joins results of further samples; [ ] = remark or other dose.

SMILES	TRPV1 potentiator	D2 PAM	Sfp PPTase inh	Menin MLL FP FL	gsp antagonist	ClpP mod	gsp agonist
COc1ccc(-c2cnc3nc(/N=C/N(C)C)nn3c2/N=C/N(C)C)cc1	-4	-5	14%	-3.5	-2%	/	-2%[15.4 µM]
Nc1c(C(=O)CSc2nnc(COc3ccc(Cl)cc3)o2)c(=O)[nH]c(=O)n1C1CC1	-30	0	/	/	8%	1.5%	24%
O=C1c2[nH]c(=O)[nH]c(=O)c2CN1Cc1ccccc1	/	-12	/	/	-4%	-0.3%	-4%[15.4 µM]
CCCCCCSc1ccc([C@H]2N[C@@](Cc3ccccc3)(C(=O)OC)[C@H]3C(=O)N(C)C(=O)[C@@H]23)cc1OC	-4	-2	/	/	-19%	-24%	8%
COCCNC(=O)CSc1nc2cc(OC)c(OC)cc2c(=O)n1Cc1ccc(OC)cc1	16	8	-1%	0.1	2%	-2.1%	-85%[inhibitor]
Cc1cc2cc(C)c3nnc(SCC(=O)NCc4ccco4)n3c2cc1C	12	-14	-13%	-0.6	-1%	-14%	18%
Cc1cc2cc(CNC(=O)c3cccs3)ccc2n1C	-6	-7	45µM*	?	13%	-0.6%	?
COc1ccc(N(CC(=O)Nc2ccccc2Cl)S(=O)(=O)c2ccc(C)cc2)cc1OC	9	-6	6%	-4.3	-12%	-2.6%	?
COc1ccccc1N(CC(O)CN1CCOCC1)S(=O)(=O)c1ccccc1 (stereo not given)	6	3	15%	0.0	/	/	4%[15.4 µM]
c1ccc2c(c1)nc(CN1CCOCC1)n1c3ccccc3nc21	0	-14	1%	-1.4	-5%	-20%	?
CC(=O)Nc1cccc(NC(=O)c2c(-c3ccccc3Cl)noc2C)c1	-8	4	9%	7.3	-11%	-1.9%	11%
O=c1[nH]c(SCc2ccc(Cl)cc2)nc2ccsc12	21	1	4%	-2.2	-2%	/	-24%
Cc1ccc(C(=O)N2CC(=O)Nc3ccc(F)cc3C2c2ccccc2)cc1 (stereo not given)	-19	-11	5%	-5.7	2%	-1.5%	8%[15.4 µM]
CCC(=O)Oc1cccc(C(=O)Nc2cccc(NC(=O)c3ccco3)c2)c1	-3	1	16%	-8.2	-34%	/	-31%[15.4 µM]
COc1cc(NC(=O)c2nccnc2N)cc(C(=O)Nc2cccc(C(F)(F)F)c2)c1	-12	9&0	2%	3.4	-10%	124%&20%	-76%&-35%[inhibitor]
O=C(OCc1cc(=O)c(OC(=O)c2ccccc2)co1)c1ccccc1	/	6	/	/	-3%	2.4%	6%[15.4 µM]
C/C(=N\Nc1nc2ccc(Cl)cc2o1)c1ccccc1	-17	-10	9%	0.3	-4%	/	-7%
CC1CN(C(=O)C2CC(=O)N(c3ccc(Cl)cc3)C2)CC(C)O1 (stereo not given)	0	-3	0%	/	9%	/	-10%
O=C(CN(Cc1ccco1)C(=O)c1ccc(F)cc1F)Nc1ccccc1C(F)(F)F	-17	-2	/	/	-3%	-1.0%	43%
COc1ccc(NC(=O)CN(C)C(=O)C2CC(=O)N(Cc3ccc(C)cc3)C2)cc1 (stereo not given)	8	-12	/	/	0%	-11%	-16%
CCCc1c(C)c(C#N)c2nc3ccccc3n2c1NCCCN1CCOCC1	16	-3	4%	-0.1	2%	-4.6%	?
CCOC(=O)c1cnc2ccc(OCC)cc2c1N1CCN(c2ccccc2OC)CC1	7	2	?	-0.1	?	-8.9%	0%
CC1(C2CC2)NC(=O)N(CC(=O)Nc2ccccc2-c2ccccc2)C1=O (stereo not given)	5	-8	4%	-5.5	8%	0.8%	-2%
Cc1ccc(OCC(=O)NNC(=O)C2CCC2)cc1C	-8	-2	/	/	-14%	-4.4%	4%
CC(C)c1ccc(C(=O)NCCCNC(=O)c2cnccn2)cc1	-6	-9	-2%	-1.4	9%	-0.5%	?
Other compounds follow.
SMILES	TRPV1 potentiator	D2 PAM	Sfp PPTase inh	Menin MLL FP FL	gsp antagonist	ClpP mod	gsp agonist
COc1cccc(SCC2CSc3nc4ccccc4c(=O)n32)c1 (stereo not given)	-11	-8	1%	-0.4	-8%	0.4%	?
CC1(C)Cc2cccc(OCC(=O)N3CCN(c4ccccc4)CC3)c2O1	-3	-5	18%	0.6	-4%	-0.3%	17%[15.4 µM]
CCOC(=O)CN(C(=O)CSc1nnnn1C)c1ccccc1	/	-6	/	/	11%	/	-36%[inhibitor]
COc1ccccc1N1CCN(C(=O)c2cc(S(=O)(=O)N3CCOCC3)ccc2C)CC1	0	-31	/	/	-2%	0.4%	-7%[15.4 µM]
CN(C)S(=O)(=O)c1cccc(NC(=O)c2ccc(S(=O)(=O)N3CCCC3)cc2)c1	-11	-26	/	/	-21%	-10%	-73%[inhibitor]
CC(=O)c1ccc(NC(=O)CCc2nc3sc4c(c3c(=O)[nH]2)CCCC4)cc1	3	-9	/	/	?	-0.3%	23%[15.4 µM]
COc1ccc(NC(=O)CN2CCC(C(N)=O)CC2)cc1	-2	2	8%	0.2	4%	-1.8%	15%
c1ccc(-n2nnnc2NC2CCCCC2)cc1	-5	-18	4%	-1.9	5%	-4.6%	-12%
O=C(COC(=O)c1cccnc1)c1ccc(Cl)c(Cl)c1	-9	-27	1%	6.9	-30%	-1.1%	-14%
C=CCC1CCCCC12NC(=O)N(c1ccccc1)N2 (stereo not given)	-3	8	-7%	1.4	3%	/	9%[15.4 µM]
COc1ccc(OC)c(NC(=O)CSc2nc3ccccc3c(=O)n2CCNC(C)=O)c1	5	11	-6%	-1.2	2%	-0.1%	-8%
Cc1ccc(-c2nn(-c3ccccn3)c(=O)c3ccccc23)cc1C	7	8	17%	1.1	1%	-1.8%	-3%
CC(=O)c1cccc(S(=O)(=O)N2CCN(c3ccccc3F)CC2)c1	-2	-9	13%	1.6	13%	-1.7%&0.4%	-18%
O=C(Cc1cn2ccsc2n1)Nc1cccc2cnccc12	8	-9	14%	-0.5	7%	-5.0%	15%
COc1ccc2c([N+](=O)[O-])c(N3CCCC3)[nH]c2c1	7	15	-10%	3.3	-1%	2.1%	7%[15.4 µM]
O=C(Nc1cccc2ccccc12)/C(=C/c1cccc([N+](=O)[O-])c1)NC(=O)c1cccs1	8	-3	18%	0.8	3%	-1.9%	6%[15.4 µM]
COc1ccc(N(C)S(=O)(=O)c2ccc3c(c2)CCC(=O)N3)cc1	-3	-3	7%	0.7	-16%	-2.7%	27%
CC1=C(C(=O)Nc2ccccc2)C(c2ccc(C)o2)n2ncnc2N1 (stereo not given)	?	-8	-6%	-3.3	4%	1.0%	-28%
CSCCC(NC(=O)CCC(=O)OCC(=O)[C@@]1(O)CCC2[C@@H]3CCC4=CC(=O)C=C[C@]4(C)C3[C@@H](O)C[C@@]21C)C(=O)O (stereo not given in full)	-6	-7	3%	-0.3	7%	-3.6%	-35%
O=C(CSC1=NS(=O)(=O)c2cc(Cl)ccc2N1)Nc1cccc(F)c1	7	-11	/	/	-1%	-2.6%	25%
O=C(CSc1nc(-c2ccc(F)cc2)cc(C(F)(F)F)n1)NCc1ccco1	3	-5	-5%	2.4	2%	-2.1%	-44%[inhibitor]
CCCC(NC(=O)c1ccc(Br)o1)c1nc2ccccc2[nH]1 (stereo not given)	/	-7	/	/	-1%	-1.5%	0%
CC(=O)Nc1ccc(S(=O)(=O)N(Cc2cc3ccc(C)cc3[nH]c2=O)CC2CCCO2)cc1 (stereo not given)	2	4	13%	/	-7%	-19%	?
CN1CCN(C(=O)C23CC4CC(C2)CC(c2ccccc2)(C4)C3)CC1	-3	-18	-5%	-1.1	1%	/	-12%[15.4 µM]
CCOC(=O)c1c(NC(=O)c2ccco2)sc2c1CCCC2	9	-11	15%	-0.6	-22%	-20%	-47%[inhibitor]
(more compounds)
SMILES	TRPV1 potentiator	D2 PAM	Sfp PPTase inh	Menin MLL FP FL	gsp antagonist	ClpP mod	gsp agonist
CCN(c1ccccc1)S(=O)(=O)c1ccc(Oc2ccc(-n3ccnc3)cc2)nc1	15	-3	-8%	3.0	-21%	-0.9%	-27%
O=C(Nc1cccc(F)c1)c1ccc2c(c1)OCO2	-22	-16	13%	1.5	-10%	-0.4%	0%
CC(=O)c1cccc(S(=O)(=O)N2CCC(c3nc4ccccc4[nH]3)CC2)c1	-11	-5	13%	1.0	-6%	/	21%[15.4 µM]
c1ccc(-c2nnc(CSc3nc4ccccc4[nH]3)o2)cc1	/	-29	-8%	-0.3	5%	-0.5%	-17%
CCOc1cc(/C=N\n2nnnc2N)ccc1O	4	-8	3%	1.3	-15%	-15%	4%
CCN1CCN(CCCNC(=O)c2ccc(NC(=O)C3=CSCCO3)cc2)CC1	1	-10	10%	/	3%	-1.7%	-6%
COc1ccccc1CNc1nc2nc(C)cc(=O)n2[nH]1	-4	-10	-5%	0.1	-1%[15.4 µM]	-9.7%	-39%[inhibitor]
Cc1ccc(NC(=O)c2oc3ccc(S(=O)(=O)N4CCOCC4)cc3c2C)c(C)c1	4	7	-14%	0.8	9%	-1.2%	?
CCC(=O)N1c2ccc(S(=O)(=O)NCCc3ccccc3)cc2CC1C (stereo not given)	0	-3	10%	1.1	-16%	-2.9%&0.9%	?
Cc1ccc(NC(=O)Nc2ccccc2C(=O)NCc2ccccc2)cc1	-11	-2	17%	5.2	-9%	-11%	3%
CSCCC1NC(=O)N(CC(=O)Nc2cccc(S(=O)(=O)N3CCCCCC3)c2)C1=O (stereo not given)	/	0	/	/	4%	/	18%
COc1ccccc1Oc1ncnc2sccc12	-2	-1	14%	-4.6	13%	/	14%[15.4 µM]
O=C(CSc1nnc(-c2ccccc2O)o1)NC1CCCCC1	21	-6	1%	-2.0	12%	/	-3%[15.4 µM]
COc1ccc(OCCCC(=O)Nc2cccc(C(C)=O)c2)cc1	-35	-18	?	?	1%	0.8%	1%
COc1ccc(CNC(=O)Nc2ccc([N+](=O)[O-])cc2)cc1	/	-3	6%	-7.0	9%	-1.0%	/
CC(=O)COC(=O)CNC(=O)c1ccc(Br)cc1	6	1	21%	5.1	-7%	0.8%	-17%
CCN1CCC2(CCN(Cc3cn[nH]c3-c3ccc(OC)c(F)c3)C2)C1 (stereo not given)	3	0	12%	-4.8	-1%	0.6%	16%
